# BmaI1: BmaI1 acyl-homoserine lactone synthase inhibition – biochemical, fluorescence intensity, with counterscreen (AID 720554). actives 0.4% (n = 12,000). BmaI1 enzyme assay, fluorescence intensity; hits give high values; test concentration not given here; a few actives read low; strong numbers were not always called active. inhibition, %;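 active = both replicates within 2 robust z-scores of the inhibited control and a quiet counterscreen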;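 note: 0% = uninhibited enzyme and 100% = inhibited control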
# BmaI1 counterscreen: second read-out of BmaI1, no call of its own (marks repeat the call); inhibition, %; measured here: counterscreen; design of the counterscreen not given here;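 first of two replicates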
# Starred values were filed as active, the others as inactive. Some of the compounds tested. The share of hits here may be higher or lower than overall.
Molecule | BmaI1 | BmaI1 counterscreen
O=C1CSC(c2ccccc2)N1Cc1ccccn1 (stereo not drawn) | 12 | 5
Cc1ccc(CNc2ncnc3c2oc2ccccc23)cc1 | 6 | 2
O=c1ccnc(SCc2ccc(CSc3nccc(=O)[nH]3)cc2)[nH]1 | 0 | 6
O=C(N/N=C/c1ccccc1)c1n[nH]c(=O)c2ccccc12 | 2 | -1
Cc1ccc(-c2noc(CCCCCN)n2)cc1 | 26 | 16
Clc1ccc(COC(Cn2ccnc2)c2ccc(Cl)cc2Cl)c(Cl)c1 (stereo not drawn) | 11 | 41
CC(Oc1cc(C(F)(F)F)cc(C(F)(F)F)c1)C(=O)NC(N)=O (stereo not drawn) | 2 | -8
Cc1cccc(NC(=O)COC(=O)c2cc(C)oc2C)c1 | 14 | 8
CC1CN(Cn2c(=S)oc3ccccc32)CC(C)O1 (stereo not drawn) | 62 | 14
CC1Cc2ccccc2N1CC(=O)N1Cc2ccccc2C1 (stereo not drawn) | 42 | -10
CC1CN(C(=O)CNc2ccccc2C(=O)NCc2ccccc2)CC(C)O1 (stereo not drawn) | -9 | -10
Cc1cc(C)nc(SCC(=O)OCC(=O)Nc2sccc2C#N)n1 | 21 | 20
Cc1noc(C)c1COC(=O)/C=C/c1cn(-c2ccccc2)nc1-c1ccc2c(c1)OCCO2 | 26 | -1
C[C@@H](c1ncncc1F)[C@](O)(Cn1cncn1)c1ccc(F)cc1F | 8 | 6
O=C1CN(Cc2ccccc2)c2ccccc2N1 | 33 | -4
O=C(CCc1nc2sc3c(c2c(=O)[nH]1)CCCC3)N1CCN(Cc2ccc3c(c2)OCO3)CC1 | 18 | 2
CCCCN1CN(CCc2cccc(Cl)c2)Cn2c1nc1ccccc12 | -6 | -2
Cc1c(/C=N/NC(=O)CCc2ccc(S(=O)(=O)N3CCOCC3)cc2)cc(C#N)n1C | -4 | 1
CN(CC(=O)Nc1ccc(C(N)=O)cc1)Cc1c(F)cccc1Cl | 4 | 4
Cc1cc(C)n(-c2ccc(C(=O)NCCSCc3ccco3)cc2)n1 | 2 | 4
O=C(COC(=O)C1Cc2ccccc2CN1C(=O)c1ccco1)NC12CC3CC(CC(C3)C1)C2 (stereo not drawn) | 13 | 8
O=C1c2ccccc2-c2nn(C(=O)C3CCN(S(=O)(=O)c4cccs4)CC3)c3cccc1c23 | 12 | 8
CN(C)CCCNc1ncnc2c1oc1ccccc12 | -3 | -6
CCC1(c2ccccc2)NC(=O)N(Cc2ccccc2)C1=O (stereo not drawn) | 16 | 10
CN(CC(=O)Nc1ccc(N2CCOCC2)cc1)CC(=O)Nc1sc2c(c1C#N)CCCC2 | 5 | 8
Cc1ccc(NC(=O)NCc2nc3ccccc3n2C)cc1 | 19 | 0
O=C(Cn1ccccc1=O)Nc1ccc(N2CCOCC2)cc1N1CCOCC1 | 36 | 0
O=C(NC1=NCCS1)c1cccc(S(=O)(=O)N2CCCc3ccccc32)c1 | 12 | 4
COc1ccccc1C(=O)NC(=S)c1c(C)nc2sccn12 | 18 | 13
CN(CC(=O)Nc1ccc(S(=O)(=O)N2CCCC2)cc1)CC(=O)Nc1ccc(F)c(F)c1F | 9 | 10
CCCn1c(SCC(=O)N2CCN(S(=O)(=O)c3ccc(Cl)cc3)CC2)n[nH]c1=O | 1 | -12
Cc1ccc(O)c([C@H](CCN(C(C)C)C(C)C)c2ccccc2)c1 | 10 | 7
Cc1ccc(C)c(N2N=C(C(=O)Nc3ccc(N4CCOCC4)cc3)CCC2=O)c1 | 1 | 0
Cc1nn(-c2cccc(C(F)(F)F)c2)c(Cl)c1/C=N/NC(N)=O | 16 | 1
Cc1cc(C)c(C)c(S(=O)(=O)N2CCN(C(=O)CCN3C(=O)C4CC=CCC4C3=O)CC2)c1C (stereo not drawn) | 4 | 8
CCN(Cc1ccc(Br)s1)C(=O)CSc1nnc(C2CC2)n1C1CC1 | 22 | 11
O=C1Oc2ccccc2C(=O)/C1=C/N1CCCCC1 | 18 | 7
O=C1C(CCS(=O)c2ccccc2)C(=O)N(c2ccccc2)N1c1ccccc1 (stereo not drawn) | 10 | 14
Cc1ccc(Cn2c(=O)c3ccccc3n3c(SCC4CCCO4)nnc23)cc1 (stereo not drawn) | 24 | 4
CCOC(=O)c1oc2ccccc2c1N=Cc1c(O)n(CC)c(=S)n(CC)c1=O | 6 | 2
CN=c1scc(-c2ccc(Br)s2)n1/N=C1\C(=O)Nc2ccccc21 | 15 | 0
COc1cc(-c2nnc(COC(=O)C3(c4ccccc4)CC3)o2)cc(OC)c1OC | 18 | 8
CCOc1cccc(/C=N/n2c(=O)[nH]c3ccccc3c2=O)c1OC | 4 | 0
CN(C)S(=O)(=O)c1ccc(NC2Sc3ccccc3NC2=O)cc1 (stereo not drawn) | 8 | -4
CC12CCC(=O)C=C1CCC1C2CCC2(C)C(O)CCC12 (stereo not drawn) | 8 | 10
COc1cc(C(=O)OCC(=O)c2cc(C)n(C)c2C)cc(NC(=O)c2ccco2)c1OC | 10 | -2
O=C(O)c1cccc(S(=O)(=O)NNc2ccccc2C(F)(F)F)c1 | 9 | 18
CC(C)[N+]1(C)C2CCC1CC(OC(=O)C(CO)c1ccccc1)C2 (stereo not drawn) | -3 | -2
CCCc1nc(C)c2c(=O)[nH]c(-c3cc(S(=O)(=O)N4CCN(CC)CC4)ccc3OCC)nn12 | -4 | -2
Cc1cc(C(=O)CSc2ccc(S(=O)(=O)N3CCCCC3)cn2)c(C)n1Cc1ccco1 | 12 | 3
COC(=O)c1ccc2c(=O)[nH]c(COC(=O)c3oc4ccccc4c3C)nc2c1 | 5 | 0
O=C(CSc1nc(O)cc(=O)n1C1CCCC1)NC12CC3CC(CC(C3)C1)C2 | 16 | 6
CC(SCC(=O)N1CCN(c2ccccc2)CC1)C(=O)O (stereo not drawn) | -30 | -8
O=C1NC2(CCCc3ccccc32)C(=O)N1CN1CCc2ccccc2C1 (stereo not drawn) | -12 | -3
Cc1cc(C(=O)OCCOc2ccc(Br)cc2)c(C)o1 | 4 | -3
CCOC(=O)N1CCN(c2nc3ccccc3nc2Nc2sc3c(c2C#N)CCCC3)CC1 | 36 | 15
CC(=O)N=c1sccn1CC(O)c1ccc(Br)cc1 (stereo not drawn) | 1 | 1
N#Cc1cc(C(=O)O)c(N)[nH]c1=O | 14 | 2
NC(=O)OCC(COC(N)=O)c1ccccc1 | 2 | 8
CC(OC(=O)c1ccc(S(=O)(=O)N2CCCC2)cc1)C(=O)N1CCc2ccccc21 (stereo not drawn) | 12 | 8

# Random excerpt: two records from the list
Molecule | BmaI1 | BmaI1 counterscreen
O=c1ccnc(SCc2ccc(CSc3nccc(=O)[nH]3)cc2)[nH]1 | 0 | 6
COc1ccccc1C(=O)NC(=S)c1c(C)nc2sccn12 | 18 | 13

# (next part)
Molecule | BmaI1 | BmaI1 counterscreen
c1ccc(CN2CCOCC2)cc1 | 14 | 6
CSc1ncc(C(=O)OCc2ccc(C#N)cc2)n1-c1ccccc1 | 17 | -11
CN(C(=O)CSc1nnc(-c2ccccc2)o1)c1c(N)n(Cc2ccccc2)c(=O)[nH]c1=O | 16 | 7
COc1ccc(N=CN(C)C)cc1OC | 10 | 2
C[C@]12CC[C@H]3[C@@H](CCC4=CC(=O)CC[C@@H]43)[C@@H]1CC[C@@H]2O | 4 | 10
COc1ccc(CNC(=O)CSC(=S)N2CCCC2)cc1 | 6 | 4
CCN(CC(=O)Nc1cc(C)on1)Cc1nc2ccccc2c(=O)[nH]1 | 16 | -1
CC1CCCC(NC(=O)CSc2nc3ccccc3o2)C1C (stereo not drawn) | 10 | 4
COC(=O)C1CC(O)CN1S(=O)(=O)c1ccc(Cl)cc1 (stereo not drawn) | 4 | -7
COCCCn1c(-c2cccs2)csc1=Nc1ccc(S(=O)(=O)N2CCOCC2)cc1 | 12 | 12
O=S(=O)(c1ccc(NC2CCC(O)CC2)nc1)N1CCCC1 (stereo not drawn) | 9 | 6
Cc1ccc(NC(=O)COC(=O)c2ccccc2S(C)=O)cc1C (stereo not drawn) | 12 | -2
C/C(=N\NC(=O)c1cc2c3ccccc3n(C)c2s1)c1ccc(OCC(N)=O)cc1 | 24 | 18
CC(NC(=O)COc1ccccc1)C(=O)N1CCN(c2ccccc2)CC1 (stereo not drawn) | 0 | 10
N[C@@H](Cc1cc(I)c(Oc2cc(I)c(O)c(I)c2)c(I)c1)C(=O)O | 32 | 14
COc1ccc(OC)c(-c2nc(N)sc2N=Nc2cccnc2)c1 | 14 | 10
CC(=O)NCc1ccc(C(=O)COC(=O)c2cc(-c3ccccc3)nn2-c2ccccc2)o1 | 18 | 6
O=C(OCc1c(F)cccc1Cl)c1ccccc1N1CCCC1=O | 20 | -2
Cc1cccc(C)c1NC(=O)CNC(=O)CSc1nnc(-c2cccnc2)n1Cc1ccco1 | -2 | -4
CN=C1SC(CC(=O)Nc2ccccc2F)C(=O)N1/N=C/c1ccc(O)c(OC)c1 (stereo not drawn) | 12 | 4
O=C(COC(=O)c1n[nH]c2ccccc12)NCC1CCCCC1 | 9 | 5
CC(C)Sc1nc2ccccc2n1CN1CCN(c2ccccn2)CC1 | 9 | 3
CC(C)CC1(C)NC(=O)N(CC(=O)c2ccc(Cl)s2)C1=O (stereo not drawn) | -5 | -8
O=c1cc(CNc2cccc(F)c2)nc2ccc(Br)cn12 | 16 | 3
O=c1[nH]c2ccccc2c(=O)n1/N=C/c1cc(Cl)cc(Cl)c1O | 5 | 2
COC(=O)/C=C1\NC(=O)CS1 | -13 | -4
O=C(CSc1nnc(COc2ccccc2Cl)o1)NC(=O)NC1CCCC1 | 18 | 1
Cc1oc(-c2ccccc2)nc1C(=O)Nc1ccccc1C(=O)Nc1ccc2c(c1)OCO2 | 0 | 6
CCCn1c(=O)c2ccccc2n2c(SCC(=O)NC(=O)NC)nnc12 | 28 | 2
O=S(=O)(c1ccc(Oc2ccc(-c3nnco3)cc2)nc1)N1CCC(Cc2ccccc2)CC1 | -2 | 3

# Structures shown so far containing bromine, in the order listed:
Molecule | BmaI1 | BmaI1 counterscreen
CCN(Cc1ccc(Br)s1)C(=O)CSc1nnc(C2CC2)n1C1CC1 | 22 | 11
CN=c1scc(-c2ccc(Br)s2)n1/N=C1\C(=O)Nc2ccccc21 | 15 | 0
Cc1cc(C(=O)OCCOc2ccc(Br)cc2)c(C)o1 | 4 | -3
CC(=O)N=c1sccn1CC(O)c1ccc(Br)cc1 (stereo not drawn) | 1 | 1
O=c1cc(CNc2cccc(F)c2)nc2ccc(Br)cn12 | 16 | 3

# (listing goes on)
Molecule | BmaI1 | BmaI1 counterscreen
CC(=O)N1CCN(C(=O)C2C3CC4CC(C3)CC2C4)CC1 (stereo not drawn) | 0 | -5
O=C(CN1C(=O)C2CC=CCC2C1=O)Nc1ccccc1C(=O)Nc1ccccc1 (stereo not drawn) | 30 | 6
O=C(Nc1ccc(-c2cn3ccsc3n2)cc1)C1CCCC1 | 14 | 2
Cc1nn(-c2cccc(Cl)c2)nc1C(=O)N1CCN(C(=O)C2CC2)CC1 | 8 | 0
O=C(/C=c1/[nH]c(=O)/c(=C/c2ccccc2C(F)(F)F)s1)c1ccco1 | 24 | 16
O=C(/C=C/c1ccco1)OC1CCOC1=O (stereo not drawn) | 0 | -6
CCN(CC)S(=O)(=O)c1ccc(/C=C/C(=O)OCC(=O)Nc2cccnc2Cl)cc1 | 25 | 4
CNC(=O)NC(=O)CSc1ncc(C(F)(F)F)cc1Cl | 9 | 5
O=C(NC1=NCCS1)c1ccc2c(c1)C(=O)N(Cc1ccncc1)C2=O | 16 | 12
c1ccc2c(CSc3nnc(-c4ccc5c(c4)OCO5)o3)cccc2c1 | 8 | 8
NNc1ncnc2cc(-c3ccc(Br)cc3)sc12 | 30 | 40
O=C(Cc1cn2ccsc2n1)Nc1ccc(Cl)cc1 | 6 | 9
CCCCCn1c(=O)c2ccccc2n2c(Cn3cc(S(=O)(=O)N4CCCC4)ccc3=O)nnc12 | 24 | 8
O=C(Cc1c[nH]c2ccccc12)NCC(c1ccco1)N1CCCCC1 (stereo not drawn) | 6 | 9
COc1ccc(-n2nnnc2SCCCC(=O)c2ccccc2)cc1 | 22 | 6
O=C(/C=C/c1cccs1)Oc1ccc2c(c1)OCO2 | 24 | 18
Cc1cc(CNCC(c2ccco2)N2CCCCC2)c(C)n1-c1ccnn1C(C)C (stereo not drawn) | 22 | 2
NC(N)=Nc1nc(CSCC/C(N)=N/S(N)(=O)=O)cs1 | -4 | 4
O=S(=O)(NCC1CCCCC1)c1ccc2c(c1)OCCO2 | -20 | -1
O=C(c1cnn(-c2ccccc2)n1)N1CCCC1c1nc2ccccc2s1 (stereo not drawn) | 10 | -5
C=CCNC(=S)NN=C1CCCCCC1 | -10 | 0
CCN(CC(=O)NC1CCCc2ccccc21)Cc1nc2ccccc2c(=O)[nH]1 (stereo not drawn) | 8 | -3
O=C(COC(=O)Cc1cccc2ccccc12)Nc1ccc2[nH]c(=O)[nH]c2c1 | 16 | 16
O=C(NCCc1ccccc1)c1ccccn1 | -5 | -6
CC(C)C(C)NC(=O)CSc1nnc(COc2ccccc2Cl)o1 (stereo not drawn) | 12 | 15
CC1CCc2c(sc(NC(=O)CSc3nnc4n3CCCCC4)c2C(N)=O)C1 (stereo not drawn) | 45 | 10
CN1/C(=C\C(=O)CSc2nncn2-c2ccccc2)C(C)(C)c2ccccc21 | 7 | -2
O=C(CC1CCCC1)Nc1nc2ccccc2[nH]1 | 6 | 0
Cc1cc(C(=O)Cn2c(CO)nc3ccccc32)c(C)n1C | 19 | 5
CCOC(=O)c1ccoc1CSc1nnc(Nc2ccc(C)cc2)s1 | 20 | 22
O=C(c1ccccc1)N(Cc1nnc(-c2ccc(Cl)cc2)o1)C1CC1 | -14 | -2
CCc1nnc(NC(=O)[C@@H](NC(=O)c2cccc(S(=O)(=O)N(CC)CC)c2)C(C)C)s1 | 9 | 5
CC(=O)Nc1ccc(/C=C(\C#N)C(=O)NC2CCCCC2)cc1 | 17 | 0
CC(C)N(Cc1nnc(-c2ccccc2Cl)o1)C(=O)C1=CC=CN2CCS(=O)(=O)N=C12 | 10 | 4
O=C(Cn1ncc(Cl)c(Cl)c1=O)NCC1CCCO1 (stereo not drawn) | 12 | 9
CCN1CCN(C(=O)c2cccc(OC(F)F)c2)CC1 | 8 | -7

# Assay outcomes from PubChem.
